PMP22 txn prim – Cell-based coincidence reporter assay to measure PMP22 gene transcription in S16 Pmp22-F2sN cells - Primary screen. 2% of 43,000 active. Potency, µM (doses to about 57.5 µM), without a hit: top-dose activity change, negative = inhibition, usual class: inhibitors. S16 Pmp22-F2sN Schwann cells (luciferase reporters placed in the Pmp22 gene), FLuc/NLuc coincidence luminescence, 24 h; active = clear falling dose curves in both reporters; inconclusive = both reporters move, but less clearly or upward; inactive = either reporter flat; the % is the NLuc reporter signal; further: on the % scale 0 is the no-effect control and ±100 the full control effect; some results filed as inactive show a strong effect at the top dose
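Schwann cells carrying the coincidence reporter were exposed to library compounds for 24 h at 37C, then lysed and read for FLuc and, after quenching, NLuc luminescence on a CCD imager.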
HTT prom inh – Primary qHTS for Identification of Small Molecule Inhibitors of Huntingtin Promoter Activity; HEK293 HTT promoter firefly luciferase reporter (activity 0% = vehicle and -100% = no light), 24 h; Potency, µM (titrated, usually from 57.5 µM), inactives show at the highest dose activity change, negative = inhibition, usual class: inhibitors; 0.93% of 48,000 active; AID 1508623, 2021; active means well fitted inhibition curve with a large enough effect; inconclusive means small, poorly fitted or top-dose-only effect; inactive means no such curve, though single readings can be large or run the other way; further: nearly all actives have a fitted effect of over 50% in size
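Firefly luciferase readout (Dual-Glo, 10 min RT) after 24 h, 37 °C compound exposure (final up to 57.5 uM) of HEK293 reporter cells cultured 24 h beforehand; PTC124 at 50 uM final as control inhibitor; activity scaled vehicle 0%, zero RLU -100%.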
The depositor's hits bear a star; ? = inconclusive; / = no result given; & = joins results of further samples; [ ] = dose if it differs, or a comment. Potency means the concentration at half of the fitted maximal effect.

Molecule	HTT prom inh	PMP22 txn prim
c1ccc(CNc2nc3ccccc3c3nc(-c4ccccc4)nn23)cc1	1.2%	-15.7%
Cc1ccc(Cn2cc(S(=O)(=O)c3cccc(C)c3)c(=O)c3cc(F)c(N4CCOCC4)cc32)cc1	-29.7%	-8.3%
Nc1ccn([C@@H]2O[C@H](CO)[C@@H](O)C2O)c(=O)n1 (some centres undefined)	-3.5%	/
COc1ccc(NC(=O)Cn2c(=O)oc3cc(Cl)ccc32)c(OC)c1	-2.8%	-114.3%
Cc1ccc(-c2nsc(NC(=O)c3oc4cc(C)c(Cl)cc4c3C)n2)cc1	-1.3%	-14.9%
CCN(CC)C(=O)c1ccc2c(c1)N(Cc1c(F)cccc1Cl)C(=O)c1ccccc1S2	-27.5%	-13.1%
O=C(Nc1noc2ccccc12)c1cccc(Cl)c1Cl	40.7%[activator]	-11.9%
CC(=O)c1ccc(NC(=O)COc2ccccc2-c2nc(-c3ccccc3)no2)cc1	-11.0%	2.0%
O=C(NC1CC(=O)N(c2cccc(F)c2)C1)c1ccc(Br)o1 (centres undefined)	5.4%	23.4%
COc1cc2c(cc1OC)C(COc1ccc3c(C)cc(=O)oc3c1)N(C(=O)Cc1ccccc1)CC2 (centres undefined)	-15.7%	?
CCc1cccc(NC(=O)CN(C)S(=O)(=O)c2ccc3[nH]c4c(c3c2)CCCC4)c1	-24.5%	-22.2%
COc1ccc(CCNC(=O)c2ccc3c(c2)N(Cc2ccccc2C)C(=O)c2ccccc2S3)cc1OC	?	-7.9%
COc1cc(C(CC(=O)Nc2ccc(F)cc2F)N2Cc3ccccc3C2=O)cc(OC)c1OC (centres undefined)	-25.7%	-0.5%
CCOC(=O)c1ccccc1NC(=O)CSc1cn(CC(=O)N2CCCCC2)c2ccccc12	-0.9%	-22.8%
COc1ccc(NC(=O)Cn2cnc3c(oc4ccccc43)c2=O)cc1OC	5.3%	21.8%
COc1ccc(-n2cc(-c3ccccc3)c3c(N4CCCC(C)C4)ncnc32)cc1 (centres undefined)	-12.9%	-4.6%
Cc1ccc(Nc2nc(-c3ccccc3)nc3ccccc23)cc1	-28.6%	?
CCN1CCC(N(Cc2ccc3c(c2)OCO3)C(=O)Nc2ccc(Br)c(C)c2)CC1	-20.6%	?
Cc1ccccc1CCNC(=O)C1CCN(S(=O)(=O)c2ccc3c(ccn3C)c2)CC1	-0.8%	-23.7%
COc1ccccc1NC(=O)N(Cc1ccco1)C1CCN(C(C)=O)CC1	-20.3%	-7.8%
CC1=C(c2ccc(Cl)cc2)S(=O)(=O)N=C1N1CCC(C(=O)NCCc2ccco2)CC1	?	?
Cc1ccc(CCNC(=O)CCSCc2ccc(Cl)cc2)cc1	-18.5%	-9.9%
Cc1ccc(CNS(=O)(=O)c2c(C)nc3sc(C)cn3c2=O)cc1	-13.0%	-5.9%
CN(C)c1ccc(Nc2nc(N)n(C(=O)c3c(F)cccc3F)n2)cc1	20.8%	/
Cc1cccc2sc(N(CCCN(C)C)C(=O)c3ccc(Cl)s3)nc12	-7.2%	?
CCCSc1oc(-c2ccco2)nc1S(=O)(=O)c1ccc(Br)cc1	-20.7%	?
O=C(NCC(O)CO)c1c(I)c(C(=O)NCC(O)CO)c(I)c(N(CCO)C(=O)CO)c1I (centres undefined)	0.0%	/
COc1ccc(-n2nc3ccc(NC(=O)c4ccc(-c5cc(Cl)ccc5Cl)o4)cc3n2)cc1	-0.8%	?
CCC(=O)N1CCc2cc(Br)cc(S(=O)(=O)N3CCCC(C(=O)NCc4ccc(F)cc4)C3)c21 (centres undefined)	-2.5%	-9.6%
CC1CCCN(c2cc3c(cc2F)c(=O)c(S(=O)(=O)c2cccc(Cl)c2)cn3Cc2ccccc2)C1 (centres undefined)	-7.8%	7.8%
NC(=O)c1c(NC(=O)c2noc3c2CCCC3)sc2c1CCCC2	83.9%[activator]	2.2%
O=C(Cc1ccccc1)Nc1sc2c(c1C(=O)Nc1ccccc1Cl)CCCC2	4.8%	-8.7%
Cc1cccc2c(=O)cc(CSCC(=O)Nc3ccc(Cl)cc3)[nH]c12	-2.2%	?
CCOc1ccc(-c2noc(CSc3nnc(Cc4ccccc4)n3-c3cccc(C)c3)n2)cc1	?	?
O=C(c1cccn1-c1nnc(N2CCCC2)s1)N1CCN(c2ccccc2)CC1	-18.9%	-7.1%
O=C(NCc1ccc2c(c1)CCN2C(=O)c1ccc(F)cc1)c1c(F)cccc1F	?	?
Cc1ccccc1NC(=O)CSc1nc2c(oc3ccccc32)c(=O)n1-c1ccccc1F	-16.5%	-9.5%
Clc1cccc(N2CCN(c3nc4ccccc4n4cnnc34)CC2)c1	1.5%	?
CCN(CC)CCCNc1ncnc2c1cnn2-c1ccc(C)c(C)c1	-10.3%	?
COc1ccc(CNC(=O)CN2C(=O)CC(c3ccc(C)c(C)c3)=Nc3ccccc32)cc1	59.9%[activator]	?
CN(c1ccc(F)cc1)S(=O)(=O)N1CCCC(C(=O)NCc2cccc(Br)c2)C1 (centres undefined)	?	-6.7%
CCc1ccc(S(=O)(=O)c2nnn3c2nc(N2CCCC2)c2sccc23)cc1	-5.5%	-13.3%
OCCN(CCO)c1ncnc2c1cnn2-c1ccc(F)cc1	44.5%[activator]	4.6%
COc1ccc(Cn2c(CO)cnc2SCc2ccccc2)cc1	-2.7%	?
Cc1cccc(NC(=O)c2sc3nc4c(cc3c2N)CCCCCC4)c1C	?	?

Profiles, quoted from the list. Values in the order: HTT prom inh | PMP22 txn prim
CCOc1ccc(-c2noc(CSc3nnc(Cc4ccccc4)n3-c3cccc(C)c3)n2)cc1 is entered as ? | ?
O=C(Cc1ccccc1)Nc1sc2c(c1C(=O)Nc1ccccc1Cl)CCCC2 is entered as 4.8% | -8.7%
O=C(NCc1ccc2c(c1)CCN2C(=O)c1ccc(F)cc1)c1c(F)cccc1F is entered as ? | ?
COc1ccc(Cn2c(CO)cnc2SCc2ccccc2)cc1 is entered as -2.7% | ?

More records follow.
Molecule	HTT prom inh	PMP22 txn prim
CC(=O)Nc1ccc(NS(=O)(=O)c2ccc(Cl)s2)cc1	-12.3%	18.7%
CCOC(=O)C1CCCN(S(=O)(=O)c2ccc3c(c2)N(C)C(=O)CC(=O)N3C)C1 (centres undefined)	-12.2%	-7.6%
COc1cccc(CNC(=O)C2CCCN(S(=O)(=O)N(C)c3ccc(F)cc3)C2)c1OC (centres undefined)	25.1µM*	?
Cc1cccc(C(c2sc3nc(-c4ccco4)nn3c2O)N2CCOCC2)c1 (centres undefined)	9.3%	21.0%
COc1ccc(N2CCN(C(=O)c3cccn4c(=O)c5ccc(Cl)cc5nc34)CC2)cc1	-0.7%	-16.7%
COc1ccc2c(c1)c(CC(=O)OCC(=O)O)c(C)n2C(=O)c1ccc(Cl)cc1	-3.6%&0.3%	/
COc1ccc(C(=O)Nc2ccc3nc4c(c(Nc5ccc(OC)c(OC)c5)c3c2)CCCC4)c(OC)c1	-6.2%	-83.3%
O=S(=O)(c1ccc(-n2cnnn2)cc1)N1CCN(c2cccc(Cl)c2)CC1	-9.4%	-18.1%
CCOCCCN1C(=O)CN(C2CCCCCC2)C(=O)C1c1ccc(OCC)c(OC)c1 (centres undefined)	18.8%	-5.0%
Cc1nc(SCc2ccc(Cl)cc2)c(C#N)c(C)c1Cl	20.5%	-17.7%
COCCNC(=O)CSc1nc(-c2ccc(F)cc2)[nH]c1-c1ccc(Cl)cc1	-32.8%	-13.5%
CN/C(=C\[N+](=O)[O-])NCCSCc1csc(CN(C)C)n1	7.8%	/
COc1ccc(OC)c(NC(=O)C2=C(C)C(=O)OC23CCN(C(C)C)CC3)c1	-11.9%	?
CC(C)Oc1ccc(C(=O)Nc2nnc3n2CCS3)cc1	72.7%[activator]	?
Cn1c(=O)c2c(n3c4ccccc4nc13)NC(=O)CC2c1ccccc1F (centres undefined)	-21.5%	8.1%
CNC(=O)CN1C(=O)COc2ccc(S(=O)(=O)N3CCC(C)CC3)cc21	-21.7%	-1.2%
CCN(CC)S(=O)(=O)c1cccc(C(=O)Nc2ccccc2C(=O)Nc2ccc(OC)cc2)c1	2.1%	-32.3%
CCc1nn(CC(=O)NC2CC2)c(=O)c2cc3ccccc3n12	33.1%[activator]	-4.1%
COc1ccc(CNC(=O)Cn2ccc3cc(S(=O)(=O)N4CCCCCC4)ccc32)cc1OC	?	9.9%
CC(NC(=O)C1CCN(C(=O)c2ccc(-n3ccc4ccccc43)s2)CC1)c1ccccc1 (centres undefined)	-15.2%	-30.2%
COc1ccccc1CNC(=O)c1ccc2c(c1)N(Cc1cccc(Cl)c1)C(=O)c1ccccc1S2(=O)=O	-11.6%	-21.5%
Cc1ccc(NC(=O)C2CCCN(c3nnc(-n4c(C)ccc4C)s3)C2)c(C)c1 (centres undefined)	-19.0%	?
Cc1ccccc1OCC(=O)Nc1ccccc1OCc1cc(=O)n2ccccc2n1	0.5%	2.7%
COc1ccc(CN(C(=O)Nc2ccc(C)c(F)c2)C2CCN(C(C)=O)CC2)cc1	-8.6%	13.4%
Cc1cc(C)c2c(CC(=O)Nc3ccc(S(=O)(=O)Nc4ncccn4)cc3)coc2c1	18.0%	3.2%
COc1ccc(C)c2sc(NC(=O)c3ccc(S(=O)(=O)N4CCCC4)cc3)nc12	-2.1%	-20.9%
CN(C)c1cc2c(cc1NS(=O)(=O)c1ccccc1)n(C)c(=O)n2C	-9.5%	-18.6%
CCOc1ccc2c(c1)sc1nc(=O)n(-c3ccc(Cl)c(Cl)c3)c(=O)n12	29.1%	-21.3%
Cc1ccc2onc(CNC(=O)Nc3cc(F)ccc3F)c2c1	-18.1%	-34.8%
O=C(CCSCc1cccc(Cl)c1)NCc1ccccc1Cl	-13.6%	10.8%
Cc1ccc(-c2nn(CC(=O)NC3CCCCC3)c3c2cnc2ccccc23)cc1	0.0%	-7.5%
COc1cccc(OCc2nc3ccccc3n2CCOc2ccccc2)c1	?	-6.5%
Cc1ccc(NC(=O)[C@@H](c2ccccc2)N2Cc3ccccc3C2=O)cc1	-4.2%	-1.6%
CC(C)(C)OC(=O)N1CCC(c2c(C(=O)N3CCN(C4CCCCC4)CC3)cnn2-c2cccc(Cl)c2)CC1	-27.4%	?
O=C(Nc1cccc(C(F)(F)F)c1)Nc1nnc(N2CCCCCC2)s1	-14.0%	0.5%
COc1cccc(C(=O)c2cn(CC(=O)Nc3cccc(C)c3C)c3nc(C)ccc3c2=O)c1	0.3%	14.5%
CCOC(=O)c1cccc(NS(=O)(=O)c2cc(-c3cnc(C4CC4)o3)ccc2C)c1	?	-73.2%
Cc1cccc(C(=O)OCc2cc(=O)n3nc(C4CC4)sc3n2)c1	-0.9%	12.0%
COc1ccc(-n2c(=O)c3sc4ccccc4c3n(CC(=O)NC3CCCCC3)c2=O)cc1	-14.2%	2.8%
CCc1cccc(C)c1NC(=O)c1cc(S(=O)(=O)N(C)Cc2ccccc2)ccc1F	?	?
COC(=O)c1c(SC)nc2ccccc2c1OCc1cc(C)ccc1C	?	1.7%
Cc1ccc(-c2nc3n(n2)C(=O)CC(c2ccc(C)cc2)S3)cc1 (centres undefined)	-0.2%	-8.0%
COc1cccc(C(=O)Nc2cccc(-c3nc4ncccn4c3C)c2)c1	3.4%	-27.2%
COc1ccc(OC)c(NC(=O)CCCc2nnc3n(C(C)C)c(=O)c4sccc4n23)c1	-10.1%	3.2%
COc1ccc(S(=O)(=O)c2c(Nc3c(C)cccc3C)sc(C(=O)c3ccc4c(c3)OCO4)c2N)cc1	?	?
Cc1nc2nc(SCC(=O)O)nn2c(C)c1Cc1c(F)cccc1Cl	-8.9%	-7.1%
COc1ccc(CNC(=O)Cn2c(=O)nc(-c3ccccc3)c3ccccc32)cc1OC	?	?
CCC12CN3CC(C)(CN(C1)C3c1c[nH]c3ccc(OC)cc13)C2=O (centres undefined)	-17.8%	5.3%
CCc1ccc(NC(=O)C2CCCN(S(=O)(=O)c3ccc4[nH]c(=O)ccc4c3)C2)cc1 (centres undefined)	-27.8%	?
O=C(NCc1ccc(Cl)cc1)C(=O)NCC(c1cccnc1)N1CCN(c2ccccc2)CC1 (centres undefined)	?	?
COc1ccc(-c2cn(-c3ccc(C)cc3)c(S(=O)(=O)CC(=O)Nc3ccc(F)cc3)n2)cc1	-4.2%	-17.4%

Source: PubChem
